# Bioassay records deposited in PubChem BioAssay by several laboratories.
# E coli growth: blocks Escherichia coli growth | OD600, 23 h; stronger effect = lower value | 330,000 compounds, 0.21% hits | OD600 absorbance (no concentration beside the values);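 active = OD600 absorbance below the run mean of sample wells minus 3.6 SD, in any replicate, cut at about 0.56 in these data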;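 also: stock transfer was 300 nL into about 60 µL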
# AF4-AF9 inh: inhibitors of human MLL-AF4/AF9 interaction; AlphaScreen, biotin-AF4 peptide binding to FLAG-AF9; 350,000 compounds, 0.47% hits; P42568; inhibition, % at 10 µM;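 active = every replicate reaching a set inhibition limit, whatever the replicate mean, cut at about 25% in these data; inconclusive = mean inhibition reaches that limit but some replicates miss it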;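 also: 0% = plate neutral control median and 100% = total signal loss; the record names both 10 and 1 µM as test concentration; the first replicate is given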
# UCH37 DUB inh: inhibitors of human deubiquitinating enzyme UCH37. Q9Y5K5. purified proteasome/UCH37, Ub-AMC cleavage fluorescence. inhibition, % (test concentration not listed). 330,000 compounds, 0.33% hits;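 active = mean of two replicates above 20%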;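 also: 0% = compound-free wells with enzyme and 100% = wells lacking proteasome; stock transfer was 100 nL into about 20 µL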
# Target sequence (Q9Y5K5 whole entry, looked up): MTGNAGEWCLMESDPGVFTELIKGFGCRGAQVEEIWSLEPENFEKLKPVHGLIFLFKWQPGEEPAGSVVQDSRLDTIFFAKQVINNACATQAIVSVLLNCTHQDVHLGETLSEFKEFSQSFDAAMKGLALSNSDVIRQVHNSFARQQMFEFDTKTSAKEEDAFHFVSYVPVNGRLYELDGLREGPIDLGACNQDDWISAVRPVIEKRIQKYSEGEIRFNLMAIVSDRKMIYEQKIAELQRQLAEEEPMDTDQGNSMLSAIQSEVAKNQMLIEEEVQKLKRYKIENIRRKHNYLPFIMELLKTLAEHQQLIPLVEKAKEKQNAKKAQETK
#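 Schedule: 30 min plus 25 min, room temperature / Material: human UCH37 within purified proteasomes / Technique: AMC fluorescence intensity at 355/460 nm / Buffer or medium: pH 7.4 Tris-HCl (50 mM) with ovalbumin, ATP-MgCl2, DTT / Controls: wells without proteasome as full block, compound-free enzyme plus substrate as uninhibited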
# Vif A3G: HIV-1 Vif–A3G interaction blockers – biochemical, TR-FRET, GST-Vif 1-94, biotin-A3G peptide, dose response retest, primary screen (AID 1117319); TR-FRET GST-Vif / biotin-A3G peptide binding; higher % means a stronger effect; test concentration not given here; strong numbers were not always called active; one-dose inhibition, %; IC50 in µM for titrated hits; 260,000 compounds, 0.57% hits;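 active = above the screen mean plus three standard deviations and confirmed in dose response; inconclusive = results disagree or hit not tested in dose response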;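 also: Vif residues 1-94 fused to GST binding biotinylated APOBEC3G peptide 110-148; 0% = full assay without inhibitor and 100% = GST in place of GST-Vif; retest series ran down from 100 µM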
# FGF22 binding: FGF22 (human) thermal shift binding; Q9HCT0; recombinant FGF22 thermal shift, SYPRO orange fluorescence; percent of sucrose octasulfate shift, DMSO zero; calls only at 9.99 µM; 340,000 compounds, 1.5% hits;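 active = melting point raised past a set limit in the mean and every replicate; inconclusive = no clear call; three in four hits are not shown here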
# Target sequence (Q9HCT0 whole entry, looked up): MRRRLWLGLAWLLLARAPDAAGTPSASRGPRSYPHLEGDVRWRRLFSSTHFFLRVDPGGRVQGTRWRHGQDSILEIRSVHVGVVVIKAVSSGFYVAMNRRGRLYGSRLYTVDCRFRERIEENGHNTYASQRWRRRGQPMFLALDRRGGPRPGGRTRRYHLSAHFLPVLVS
# RanGTP-Imp inh: inhibitors of RanGTP-importin-beta interaction, primary screen, biochemical, FRET, CFP-Ran, YFP-importin-beta, homogeneous. cell-free CFP-Ran/YFP-importin-beta FRET ratio. inhibition, % (no concentration beside the values). 300,000 compounds, 1.1% hits. AID 2216;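 active = most replicates above 15%; inconclusive = exactly half above 15%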;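 also: 0% = DMSO wells and 100% = Ran loaded with GDP instead of GTP; wells of about 40 µL received 100 nL stock; the first replicate is given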
# HNF4A DNA FP: change in binding of human HNF4 alpha to DNA; P41235; HNF4a-FITC DNA binding, fluorescence polarization, 1 h; activity change, % at 10 µM; 360,000 compounds, 0.3% hits; in the data active = activity change above about 30%, passing the limit was not always enough;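 also: controls were the assay level and a saturating level of protein; the project sought stronger binding though the title names inhibitors; some compounds called inactive have numbers as strong as hits; positive values seem to mean higher polarization but the record does not say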
# Target sequence (P41235 whole entry, looked up): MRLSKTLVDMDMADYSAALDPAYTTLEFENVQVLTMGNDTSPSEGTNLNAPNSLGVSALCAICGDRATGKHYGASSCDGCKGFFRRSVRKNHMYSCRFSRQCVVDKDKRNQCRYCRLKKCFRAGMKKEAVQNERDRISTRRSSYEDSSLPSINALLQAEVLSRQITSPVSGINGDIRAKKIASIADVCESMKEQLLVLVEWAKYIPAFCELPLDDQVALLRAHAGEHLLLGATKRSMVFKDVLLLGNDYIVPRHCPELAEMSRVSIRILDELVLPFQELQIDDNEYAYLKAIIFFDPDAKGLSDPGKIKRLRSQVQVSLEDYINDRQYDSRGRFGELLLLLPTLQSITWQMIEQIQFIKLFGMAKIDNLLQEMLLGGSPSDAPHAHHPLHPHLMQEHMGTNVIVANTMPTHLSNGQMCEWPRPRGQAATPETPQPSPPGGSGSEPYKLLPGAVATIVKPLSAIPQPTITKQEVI
# Starred values were filed as active, the others as inactive; i = inactive; u = inconclusive; x = no result given; & = joins results of further samples. Not all compounds are listed; the hit share may differ from the screen's.
SMILES,E coli growth,AF4-AF9 inh,UCH37 DUB inh,Vif A3G,FGF22 binding,RanGTP-Imp inh,HNF4A DNA FP
O=C(NNC(=O)c1ccc([N+](=O)[O-])o1)c1ccccc1,0.35*,x,11,4%,x,1.1,-2.0
Cc1cc(O)c(/C=N/Nc2ccc(F)cc2)c(=O)o1,x,1.7,x,x,i,-5.9,-0.4
Nc1nc2ccc(C(=O)Nc3ccccc3)cc2s1,0.64,x,-0.7,u,x,-3.3,-4.3
O=C(/C=C/c1ccccc1)NC(=S)Nc1ncccn1,0.67,-3.0,2.7,10%,i,0.9,1.4
CC(=O)N(C)C[C@@H]1Oc2ncc(C#Cc3ccc(F)cc3)cc2C(=O)N([C@@H](C)CO)C[C@H]1C,x,-11&-2.5&-1.4,x,13%,i,x,0.9
COc1ccc(N(CC(=O)NCc2ccco2)C(=O)CCC(=O)Nc2ccccn2)cc1,0.67,-3.5,1.5,7%,i,0.1,0.6
Cc1cc(NC(=NC2CC2)c2ccccc2)n(-c2ccccc2)n1,0.71,0.8,-2.3,5%,i,-2.3,0.2
C=CCNc1nc2cc(-c3ccccc3C)sc2c(=O)n1C,x,-3.5,x,x,i,x,-5.9
CSc1ccccc1NC(=O)COC(=O)Cc1ccsc1,0.66,-1.8,-0.3,x,i,x,2.3
COc1ccc(CNC(=O)c2cn(Cc3ccc(S(=O)(=O)N(C)C)cc3)c(=O)s2)cc1,x,1.3,x,x,i,x,4.2
O=C(C[n+]1cccc(NC(=O)c2ccccc2)c1)c1ccc(NC(=O)c2ccccc2)cc1,x,x,x,-4%,x,-1.9,1.2
NNS(=O)(=O)c1ccc(Sc2ccccn2)c([N+](=O)[O-])c1,0.65,-4.4,10,-3%,i,-0.9,0.8
O=C(c1ccco1)N1CCCC(c2nc3c(nnn3Cc3ccc(Cl)cc3Cl)c(=O)[nH]2)C1 (stereo not given),0.69,-2.6,1.6,x,i,4.2,-2.4
COc1ccc(CCNc2ncnc3c2nnn3Cc2ccccc2)cc1,0.69,-8.3,-2.5,x,i,-3.6,0.8
CCOc1ccc(CCNC(=O)C2CCN(c3nnc(-n4cccc4)s3)CC2)cc1,0.73,4.1,1.6,0%,i,-0.6,1.6

# Single values from the entries so far:
# COc1ccc(CNC(=O)c2cn(Cc3ccc(S(=O)(=O)N(C)C)cc3)c(=O)s2)cc1 in AF4-AF9 inh: 1.3
# O=C(C[n+]1cccc(NC(=O)c2ccccc2)c1)c1ccc(NC(=O)c2ccccc2)cc1 in HNF4A DNA FP: 1.2
# O=C(/C=C/c1ccccc1)NC(=S)Nc1ncccn1 in HNF4A DNA FP: 1.4

# Next compounds:
SMILES,E coli growth,AF4-AF9 inh,UCH37 DUB inh,Vif A3G,FGF22 binding,RanGTP-Imp inh,HNF4A DNA FP
COc1cc2c(C(=O)N3CCN(c4ccccc4F)CC3)cn(C)c(=O)c2cc1OC,x,10,x,4%,i,0.4,0.3
COCCNC(=O)/C(C#N)=C/C=C/c1ccccc1,0.63,-11,17,-2%,i,-4.7,-1.1
Cc1ccccc1NC(=S)NNC(=O)c1csc2c1CCC(C)C2 (stereo not given),0.72,x,2.2,5%,x,-4.6,-0.1
COC(=O)N/N=C/c1cc(Cl)c(OCc2ccc(F)cc2)c(OC)c1,x,x,x,-4%,x,-1.8,-0.8
Oc1c(C(c2cccs2)N2CCN(c3cccc(Cl)c3)CC2)sc2ncnn12 (stereo not given),0.68,7.4,0.0,-3%,i,-2.6,-0.2
O=C(c1ccc(N2CCN(C(=O)c3ccccc3)CC2)cc1)c1cccc(F)c1,0.68,5.7,-1.5,x,i,2.3,1.5
COc1cc(C(=O)OCCN2CCOCC2)cc(OC)c1OC,0.65,2.9,4.7,5%,i,2.7,4.3
CN1CCN(C(c2ccc(C(F)(F)F)cc2)c2cc(Cl)c3cccnc3c2O)CC1 (stereo not given),x,81*,x,x,i,-5.1,x
COc1ccc(N2CCN(C3CCCN(C(=O)CN4CCOC4=O)C3)CC2)cc1 (stereo not given),0.73,-0.4,-1.8,x,i,-2.0,1.3
O=[N+]([O-])c1ccccc1S(=O)(=O)n1nnc2ccccc21,0.68,x,0.5,x,x,1.0,0.0
COc1cc(NC(=O)c2ccc(S(=O)(=O)N(C)c3ccccc3OC)cc2)cc(OC)c1,0.75,-2.0,5.2,0%,i,x,1.4
CN(C(=O)Cn1cnc2sccc2c1=O)C1CCCCC1,0.63,-0.4,0.4,-9%,i,x,1.1
Cc1ccc(NC(=O)CSc2nnc(-c3ccncc3)n2C)cc1C,0.67,x,0.6,u,x,3.2,-1.3
Cc1ccc(CNC(=O)CC[C@H]2O[C@@H](n3cc(C)c(=O)[nH]c3=O)C[C@@H]2O)o1,x,1.0,x,x,i,x,2.3
O=C1CNC(=S)N1CCc1ccccc1Cl,0.69,0.5,3.7,-3%,i,-3.0,5.4
O=C(CSc1ncccn1)c1ccccc1Br,0.67,x,0.2,-5%,x,-2.8,2.0
O=C(O)c1nnn(-c2cccc(C(F)(F)F)c2)c1-c1ccccc1,0.66,-6.0,5.0,4%,i,5.5,-0.4
C=CC[C@H](CC(=O)NCCO)C(=O)N[C@H](COC(=O)[C@@H](CC=C)Cc1ccc(F)cc1)c1ccccc1,x,0.5,3.1,x,i,x,0.8
O=[N+]([O-])c1ccc(N2CCN(c3ccc(F)cc3)CC2)cn1,0.66,0.6,1.9,x,i,0.2,2.9
O=C(COc1ncnc2sccc12)N1CCN(c2ccccc2)CC1,0.68,1.7,2.0,14%,i,1.2,-1.7
CC(=O)c1cnn(-c2cc(Oc3cccc(C)c3)ncn2)c1C,0.75,x,-3.4,4%,x,2.3,4.3
O=C(Nc1ccccc1N1CCCCC1)c1ccc(OC(F)F)cc1,0.66,-0.8,2.7,x,i,6.0,-3.9
CCOc1ccc(C(=O)Nc2nnc(S(=O)(=O)N(C)Cc3ccco3)s2)cc1,x,-4.5,x,x,i,1.3,-0.6
Cc1ccc(CNC(=O)c2ccccc2NS(=O)(=O)c2ccc(Cl)nc2)cc1,0.69,3.1,-10,x,i,1.4,-0.2
COc1ccc([C@H]2C[C@H](n3cc(COC(=O)c4ccccc4)nn3)[C@@H](O)CN2Cc2cccs2)cc1,x,0.7,x,-3%,i,x,0.4
COc1cccc(NC(=O)CSCc2cc(=O)n3nc(C4CC4)sc3n2)c1,0.64,-1.5,1.6,-5%,i,-1.3,2.5
COc1ccc(NC(=O)CSc2nnnn2-c2ccc(F)cc2)cc1,0.69,2.8,-0.4,-4%,i,1.6,0.3
O=C(CSc1nnnn1-c1cccnc1)Nc1ccccc1F,0.65,-0.6,-1.4,x,i,-0.2,-2.5
O=C(Cc1c(F)cccc1Cl)N/N=C/c1cccs1,x,-1.3,x,-5%,i,3.4,-2.4
c1ccc(-c2ccccc2-n2cnnn2)cc1,0.73,x,1.1,4%,x,u,-1.1

# 4 compounds from above, sorted by the value under E coli growth, high to low.
SMILES,E coli growth,AF4-AF9 inh,UCH37 DUB inh,Vif A3G,FGF22 binding,RanGTP-Imp inh,HNF4A DNA FP
Cc1ccc(CNC(=O)c2ccccc2NS(=O)(=O)c2ccc(Cl)nc2)cc1,0.69,3.1,-10,x,i,1.4,-0.2
O=C(COc1ncnc2sccc12)N1CCN(c2ccccc2)CC1,0.68,1.7,2.0,14%,i,1.2,-1.7
O=C(O)c1nnn(-c2cccc(C(F)(F)F)c2)c1-c1ccccc1,0.66,-6.0,5.0,4%,i,5.5,-0.4
O=C(CSc1nnnn1-c1cccnc1)Nc1ccccc1F,0.65,-0.6,-1.4,x,i,-0.2,-2.5

# Later entries.
SMILES,E coli growth,AF4-AF9 inh,UCH37 DUB inh,Vif A3G,FGF22 binding,RanGTP-Imp inh,HNF4A DNA FP
Cc1c(NC(=O)CN2C(=O)NC(C)(c3ccc(OC(F)F)cc3)C2=O)c(=O)n(-c2ccccc2)n1C (stereo not given),0.68,4.4,-0.7,2%,i,2.2,4.3
CC(=O)NC(c1ccc(Cl)cc1)c1c(O)ccc2ccc(O)cc12 (stereo not given),0.69,1.6,1.9,32%,i,-64,-2.2
CCOC(=O)/C(C(N)=NCc1ccco1)=C(/O)c1ccccc1,0.72,x,4.4,4%,x,-1.1,-6.0
O=C1CCCN1CCCNS(=O)(=O)c1ccc(Br)s1,0.68,-0.2,-1.7,x,i,x,15
COCCNc1nnc(SCC(=O)N(C)c2c(N)n(Cc3ccccc3)c(=O)[nH]c2=O)s1,0.68,-1.3,3.9,6%,i,-0.3,-2.1
CCS(=O)(=O)N1Cc2ccccc2CC1C(=O)Nc1nc2ccc(F)cc2s1 (stereo not given),0.66,3.9,1.0,x,i,5.0,0.8
Cc1ccc(NC(=O)Nc2ccc3oc(C)nc3c2)cc1,0.7,x,2.5,6%,x,-3.4,-1.5
O=C(COC(=O)/C=C/c1ccc(F)cc1)Nc1ccccc1-c1ccccc1,0.73,0.2,1.6,u,i,0.3,1.6
COc1ccc([C@@H]2[C@@H]3C(=O)N(C(C)(C)C)C(=O)[C@@H]3[C@]3(Cc4ccc(Cl)cc4)C(=O)N(c4cccc(Br)c4)C(=O)N23)cc1,x,1.4,3.2,x,i,1.6,-8.7
Oc1c(Br)cc(C2N=C(c3ccccc3Cl)NO2)cc1Br (stereo not given),0.68,x,3.1,-1%,x,0.2,-3.0
COC1=C(Nc2ccc(C)cc2)C(=O)c2ccccc2C1=O,0.66,37*,4.6,17%,i,0.5,-2.1
Cc1ccc(C(=O)c2c(NC(=O)CSc3nnc(N)s3)sc3c2CCCC3)cc1,0.71,10,8.2,9%,i,9.1,-4.2
O=C1NC(c2ccc(-c3ccccc3[N+](=O)[O-])o2)C(C(=O)c2ccc(F)cc2)C(O)(C(F)(F)F)N1 (stereo not given),0.69,x,7.5,17%,x,3.2,1.4
COCCNC(=O)C1CCC(Cn2c(=S)[nH]c3ccccc3c2=O)CC1 (stereo not given),0.67,x,3.0,1%,x,u,2.4
Cc1ccc(NC(=O)COC(=O)CCNS(=O)(=O)c2ccc(C)c(C)c2)cc1,0.72,x,3.0,x,x,-7.5,3.9
C[C@@H]1C=C(C(=O)N2CCN(Cc3ccc4c(c3)OCO4)CC2)O[C@H](OCCCCO)C1,x,-5.3,0.9,u,i,4.7,0.5
COc1cc(C2CC(=O)Oc3ccc(C(C)(C)C)cc32)cc(OC)c1OC (stereo not given),0.68,-3.8,1.5,5%,i,x,0.0
Cc1nn(-c2ccccc2)c2sc(C(=O)OCC(=O)N3CCCCC3)cc12,0.75,x,-11,x,x,1.2,3.7
CCCOc1ccc(C(=O)N(CC(C)C)c2c(N)n(Cc3ccccc3)c(=O)[nH]c2=O)cc1,0.67,-7.2,1.7,25%,i,0.0,3.3
Nn1c(SCC(=O)Nc2cc(S(=O)(=O)N3CCOCC3)ccc2Cl)nnc1-c1cccnc1,0.69,-1.1,1.3,-6%,i,-2.8,2.0
O=C(NCc1ccco1)c1cnn2cccnc12,0.7,-2.1,-7.4,x,i,0.5,-2.5
CC(=O)N1CCc2cc(Br)cc(S(=O)(=O)CCC(=O)Nc3c(C)n(C)n(-c4ccccc4)c3=O)c21,0.68,-0.9,3.0,23%,x,1.2,-1.6
COc1ccc2oc(C(=O)OCC(=O)N(C)c3ccccc3)c(C)c2c1,0.67,-2.7,-20,-3%,i,1.1,4.1
CC[C@]12c3[nH]c4ccc(OC)cc4c3CCN1C(=O)C(CC(=O)NCCCN(C)C)C[C@@H]2C(=O)N1CCN(C(=O)C2CC2)CC1 (stereo not given in full),0.67,-2.3,0.4,-3%,i,x,-2.5
c1ccc(-n2ncc3c2ncn2nnnc32)cc1,0.7,x,-0.1,9%,x,u,3.8
CCS(=O)(=O)N1Cc2ccccc2CC1C(=O)NCCc1c[nH]c2ccccc12 (stereo not given),0.67,8.1,4.0,x,x,2.0,0.1
Cc1ccc(S(=O)(=O)NNC(=O)Nc2ccc(C)c(C)c2)c(C)c1,0.65,-0.5,0.9,-1%,i,-5.4,3.8
